# KCNQ2 pot: potentiators of rat KCNQ2 potassium channel; Potassium voltage-gated channel subfamily KQT member 2 (Rattus norvegicus), O88943; CHO-K1 KCNQ2, FluxOR thallium flux fluorescence; stronger effect = higher value; B-score at 10 µM; 310,000 tested, 0.54% active;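 active = fluorescence ratio B-score at least 3 SD of library B-scores, with initial fluorescence B-score within 3 SD, cut at about 5.3 in these data; same plate scores as AID 2156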;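 note: B-score of peak minus minimum over baseline fluorescence ratio after K+ and Tl+ stimulus; positive B-score means potentiation of KCNQ2 with more thallium influx and brighter signal; only the inactives scoring about 0 or higher are listed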
# Target sequence (O88943 whole entry, looked up): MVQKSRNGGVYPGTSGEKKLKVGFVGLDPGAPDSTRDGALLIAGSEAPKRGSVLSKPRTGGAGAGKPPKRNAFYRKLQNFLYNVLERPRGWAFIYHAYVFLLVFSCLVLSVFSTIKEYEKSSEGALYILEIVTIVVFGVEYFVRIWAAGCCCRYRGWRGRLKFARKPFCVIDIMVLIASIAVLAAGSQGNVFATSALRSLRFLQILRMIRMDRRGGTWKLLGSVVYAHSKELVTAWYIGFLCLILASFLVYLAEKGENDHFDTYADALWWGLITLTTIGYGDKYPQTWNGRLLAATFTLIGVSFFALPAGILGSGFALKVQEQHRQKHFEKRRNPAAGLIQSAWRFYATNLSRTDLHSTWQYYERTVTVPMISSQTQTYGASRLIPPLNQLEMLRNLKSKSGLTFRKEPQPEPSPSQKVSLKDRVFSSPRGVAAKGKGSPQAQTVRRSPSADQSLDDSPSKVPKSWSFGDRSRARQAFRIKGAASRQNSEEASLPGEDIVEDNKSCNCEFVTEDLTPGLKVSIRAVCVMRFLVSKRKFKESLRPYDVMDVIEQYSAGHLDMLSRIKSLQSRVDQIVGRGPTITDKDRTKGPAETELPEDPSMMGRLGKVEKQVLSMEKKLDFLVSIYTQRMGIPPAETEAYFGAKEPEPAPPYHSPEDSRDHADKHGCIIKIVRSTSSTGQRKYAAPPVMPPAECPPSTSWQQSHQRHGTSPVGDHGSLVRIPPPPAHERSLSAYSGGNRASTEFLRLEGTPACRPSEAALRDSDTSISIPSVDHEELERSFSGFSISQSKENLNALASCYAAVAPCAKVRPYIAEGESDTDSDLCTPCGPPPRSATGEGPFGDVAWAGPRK
# KCNQ2 pot baseline: recorded beside KCNQ2 pot, whose call it bears; B-score; compound at 10 µM; measured here: initial fluorescence intensity artifact check;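 brightness before thallium and not channel activity; 0 = typical well and far values either way flag optical interference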
# An asterisk follows results filed as active.
KCNQ2 pot,KCNQ2 pot baseline,Structure
0.84,0.41,COc1cc2c(cc1OC)C(COc1ccccc1OC)N(C(=O)C(C)(C)C)CC2 (configuration not stated)
0.15,0.08,COc1ccc(N2CCN(C(=O)c3ccc(NS(=O)(=O)c4ccc(F)cc4)cc3)CC2)cc1
0.05,-0.22,CN(C)S(=O)(=O)n1cnc(-c2ccccc2)c1-c1ccccc1
0.01,0.44,CC1CCN(S(=O)(=O)c2cc(F)ccc2CN2C(=O)c3cccnc3C2=O)CC1
1.4,-2.4,N#CCSc1ncnc2sc3c(c12)CCC3
2.7,-0.81,Cc1ccc(N=C2NC(=O)/C(=C\c3ccsc3)S2)c(C)c1
0.13,0.43,COc1cc(C(c2sc3nc(C)nn3c2O)N2CC(C)OC(C)C2)cc(OC)c1OC (configuration not stated)
0.07,1.9,CCOC(=O)C(CC)Sc1ncnc2c1nnn2-c1ccc(F)cc1 (configuration not stated)
0.95,0.99,COc1ccc(N(CC(=O)Nc2cccc(C(F)(F)F)c2)S(=O)(=O)c2c(C)[nH]c(=O)[nH]c2=O)cc1
0.55,2,Cc1ccc(NS(=O)(=O)c2ccc(N3CCN(c4ccc(O)cc4)CC3)c([N+](=O)[O-])c2)c(C)c1
0.73,-3,CCCCn1c(N)c(N(CCOC)C(=O)C2CCN(S(=O)(=O)c3ccc(C)cc3C)CC2)c(=O)[nH]c1=O
0.06,2.6,Cc1csc(NC(=O)CSc2ccc(-c3ccccc3)nn2)n1
1.3,-0.08,Cc1ccc(C(=O)N/C(=C\c2ccccc2)C(=O)NCc2ccncc2)cc1
0.02,1.1,O=C(COc1ccccc1)N(Cc1ccco1)C1CCS(=O)(=O)C1 (configuration not stated)
4.7,-1.6,CC(C)c1nc(NCC2CCCO2)c(C#N)c2c1COC(C)(C)C2 (configuration not stated)

# Reformatted with two lines to a compound: part of the list above
# Results follow in this order: KCNQ2 pot, KCNQ2 pot baseline
O=C(COc1ccccc1)N(Cc1ccco1)C1CCS(=O)(=O)C1 (configuration not stated)
  0.02, 1.1
COc1ccc(N(CC(=O)Nc2cccc(C(F)(F)F)c2)S(=O)(=O)c2c(C)[nH]c(=O)[nH]c2=O)cc1
  0.95, 0.99
CN(C)S(=O)(=O)n1cnc(-c2ccccc2)c1-c1ccccc1
  0.05, -0.22
N#CCSc1ncnc2sc3c(c12)CCC3
  1.4, -2.4
Cc1csc(NC(=O)CSc2ccc(-c3ccccc3)nn2)n1
  0.06, 2.6
COc1ccc(N2CCN(C(=O)c3ccc(NS(=O)(=O)c4ccc(F)cc4)cc3)CC2)cc1
  0.15, 0.08

# (list continues)
KCNQ2 pot,KCNQ2 pot baseline,Structure
3.2,-0.06,Cc1ccc(Nc2c(F)c(F)c(F)c(F)c2C(=O)O)c(C)c1
1.5,-1.7,Cc1ccc(NC(=O)C2CC(c3ccc(F)cc3)=NO2)cc1 (configuration not stated)
0.93,0.38,COc1ccccc1C(=O)NCC(=O)NNC(=O)C1COc2ccccc2O1 (configuration not stated)
0.01,-0.05,Cc1nc(C)c(C(=O)C2=C(O)C(=O)N(CCN3CCOCC3)C2c2cccs2)s1 (configuration not stated)
2,-1.1,CC(C)Cc1ccc(C(C)C(=N)N)cc1 (configuration not stated)
0.03,-0.2,O=C(Nc1ccc(Cl)cc1C(F)(F)F)c1ccccc1
0.22,0,CCc1nn(-c2ccccc2)c(N)c1-c1ccc(OC)c(OC)c1
0.53,0.19,Cc1c(C)c2ccc(OCC(=O)N3CCC(C(=O)O)CC3)c(C)c2oc1=O
5.2,1.2,Cc1ccc(Oc2ccc(NC(=O)Cn3ccsc3=N)cc2)cc1
1.4,-1.4,O=C(Nc1ccc2nc(-c3ccccn3)[nH]c2c1)C1CCCCC1
2,-0.62,COc1ccc(C(=O)NNC(=O)c2cc3cc([N+](=O)[O-])ccc3oc2=O)cc1OC
0.22,-1.6,C=CCN1C(=NC(=O)CC)SC2CS(=O)(=O)CC21 (configuration not stated)
1.7,-0.26,CCCCNC(=S)N1CCN(c2ccc(C(C)=O)cc2)CC1
0.3,-0.61,CCC(=O)NC(=S)Nc1ccc(N2CCN(C(=O)c3ccc(Cl)cc3)CC2)cc1
0.4,-0.33,COc1cc2c(cc1NC(=S)Nc1cccc(C)c1)oc1ccccc12

# The listing continues:
KCNQ2 pot,KCNQ2 pot baseline,Structure
0.03,0.16,Cc1cc(N2CCOCC2)nc2ccc(Cl)cc12
0.11,-0.89,COc1ccccc1NC(=O)c1ccc(Br)o1
0.46,-0.83,COc1cc(/C=N/N(C)c2ccccc2)ccc1O
11*,-0.72*,Cc1ccc(-c2csc(NC(=S)NC(=O)c3ccco3)n2)cc1
0.63,1.9,CN(C)S(=O)(=O)c1ccc(Cl)c(C(=O)OCC(=O)NC(=O)c2cccn2C)c1
0.97,-0.93,Cc1ccc(OCCn2nnc3ccccc32)cc1C
0.36,0.72,COc1ccccc1NC(=O)c1cn(C)c(=O)c2cc(OC)c(OC)cc12
1,0.02,O=C(NC(=S)Nc1ccc(CN2CCOCC2)cc1)c1ccc(-c2ccc(Cl)cc2)o1
0.02,0.13,Cc1cc(C)nc(N/N=C/c2ccccc2OCc2ccc([N+](=O)[O-])cc2)n1
0.22,0.52,CC1Sc2ccc(S(=O)(=O)N3CCC(C(=O)NCc4ccco4)CC3)cc2NC1=O (configuration not stated)
0.37,1,COc1cccc(-c2c(NC(C)=O)n(C)c3ccccc3c2=O)c1
0.77,-0.33,COc1ccccc1CCNC(=O)c1nccnc1C(=O)O
0.94,0.32,c1cncc(C(c2nnnn2C2CCCC2)N2CCN(Cc3ccc4c(c3)OCO4)CC2)c1 (configuration not stated)
0.37,-1.2,Cn1c(=O)c2c(nc(NCc3ccco3)n2Cc2ccccc2Cl)n(C)c1=O
0.98,0.83,Cc1sc2ncnc(NCC(c3ccccc3)N(C)C)c2c1C (configuration not stated)

# (more compounds)
KCNQ2 pot,KCNQ2 pot baseline,Structure
2,-0.67,Cc1ccc2nc(SCCCCOc3ccccc3)[nH]c2c1
0.45,-0.08,Cc1cc(NC(=O)CCC(=O)N(c2ccccc2)C(C(=O)NC2CCCC2)c2ccc(F)cc2)no1 (configuration not stated)
0.69,-0.55,N#Cc1cc(C#N)c(N2CCN(c3ccccn3)CC2)nc1N
1.5,-0.25,C=Cn1cc[n+](CC(=O)c2ccc(Br)s2)c1
1.3,1.7,CCOC(=O)C1=C(C)NC(C)=C(C(=O)OCC)C1c1cccc(C)n1
0.96,0.03,Cc1nn(C)c(C)c1NS(=O)(=O)c1cccc(Br)c1
1.9,-0.34,CCN1CCN(c2oc(-c3ccc(OC)cc3)nc2C#N)CC1
0.3,0.77,CC(NS(=O)(=O)c1ccc(Br)cc1)C(c1cccs1)N1CCN(C)CC1 (configuration not stated)
0.33,-0.85,O=C(CN1CCC(NC(=O)Nc2ccccc2)CC1)Nc1ccccc1F
0.14,-1.7,COc1ccccc1Nc1nc2ccccc2n1C
2.1,1.3,O=C(COC(=O)c1c[nH]c(=O)[nH]c1=O)Nc1ccccc1F
0.73,2.4,N#C/C(=C\c1c(N2CCC(C(N)=O)CC2)nc2ccccn2c1=O)C(=O)NC1CCCCC1
0.59,0.99,O=C(NCCN1CCOCC1)c1cnn2c1NC(c1cccs1)CC2C(F)(F)F (configuration not stated)
1.3,-0.62,Cc1cc(NC(=O)CCSc2ccccc2)ccc1Br
0.07,0.93,COc1ccc(Cn2c(SCC#N)nc3ccc(N4CCOCC4)cc3c2=O)cc1

# Ordered by length of the SMILES (lowest first): some entries from above
KCNQ2 pot,KCNQ2 pot baseline,Structure
1.3,-0.62,Cc1cc(NC(=O)CCSc2ccccc2)ccc1Br
1.5,-0.25,C=Cn1cc[n+](CC(=O)c2ccc(Br)s2)c1
0.94,0.32,c1cncc(C(c2nnnn2C2CCCC2)N2CCN(Cc3ccc4c(c3)OCO4)CC2)c1 (configuration not stated)
0.73,2.4,N#C/C(=C\c1c(N2CCC(C(N)=O)CC2)nc2ccccn2c1=O)C(=O)NC1CCCCC1

# Continuation:
KCNQ2 pot,KCNQ2 pot baseline,Structure
0.52,2.6,Cc1ccc(N2CCN(S(=O)(=O)c3nnc(NC(=O)c4ccco4)s3)CC2)cc1
0.03,0.02,O=C(COc1ccc2c3c(c(=O)oc2c1)CCCC3)NC(Cc1ccc(Cl)cc1)C(=O)O (configuration not stated)
1.9,0.27,Cc1ccc(C(=O)O)cc1NC(=S)NC(=O)c1ccc([N+](=O)[O-])c(C)c1
0.98,-0.03,CCOC(=O)Cc1[nH]nc2c1C(c1cc(OC)ccc1OC)C(C#N)=C(N)O2 (configuration not stated)
0.49,-0.07,COC(=O)C(C(=O)OC)C(C[N+](=O)[O-])c1ccc(O)c(OC)c1 (configuration not stated)
0.81,0.42,COc1ccc(NC(=O)C2CCN(S(=O)(=O)c3cccc4nonc34)CC2)c(OC)c1
0.31,-0.3,Cc1nonc1C(=O)N/N=C/c1ccc(O)cc1
1.1,0.37,CCOC(=O)C(C)Sc1snnc1C (configuration not stated)
0.68,-0.6,O=C(Cn1ncc2c1-c1ccccc1OC2)N1CCN(c2ccccn2)CC1
1,0.09,CCOc1ccc(N(CC(=O)NCc2ccc(OC)cc2)C(=O)CCC(=O)Nc2nccs2)cc1
0.02,0.66,CC1=NN(c2ccc(Br)cc2)C(=O)/C1=C/c1cccs1
1.7,-0.14,CCOC(=O)N1CCN(C(=O)c2cccc(F)c2)CC1
0.01,2,CCN(CC)CCNC(=O)C(=O)Nc1ccc2c(c1)N(S(=O)(=O)c1cccs1)CCC2
1.7,0.17,COc1cccc(OCC(=O)Nc2ccncc2)c1
0.12,0.55,CC(NC(=O)C(=O)c1cn(CC(=O)N2CCOCC2)c2ccccc12)c1ccccc1 (configuration not stated)

# Carrying on:
KCNQ2 pot,KCNQ2 pot baseline,Structure
0.69,-3.1,Cc1onc(-c2ccccc2)c1C(=O)OCCOc1ccc([N+](=O)[O-])cc1[N+](=O)[O-]
0.66,0.91,Cc1ccc2nc(-c3ccncc3)cc(C(=O)Nc3ccncc3)c2c1
0.34,0.73,CCN(CC)C(=O)CSc1nnc2cc(C)c3ccccc3n12
0.53,-0.52,CN1c2ccsc2/C(=N/NC(=O)c2c(F)cccc2F)CS1(=O)=O
0.56,-1.6,Cc1cccc(C(=O)NCc2nnc3c4ccccc4c(-c4ccccc4)nn23)c1
1.1,1.8,CCOC(=O)Cc1c[nH]c(=S)[nH]c1=O
0.02,0.43,CCOc1ccccc1N(C(=O)CNC(=O)c1ccco1)C(C(=O)NC1CCCC1)c1ccncc1 (configuration not stated)
0.59,-0.14,Cc1ccc(S(=O)(=O)c2cnc(-c3ccccc3)nc2N2CCCCC2)cc1
0.49,0.09,O=C(COC(=O)c1ccccc1C(=O)c1ccccc1)c1ccco1
1.2,-0.12,CC(=O)c1cccc(-n2nnnc2SCC(=O)Nc2cc(C)on2)c1
0.39,-1.3,CC(=O)NC1C(=O)N=C(SC(C)C(=O)Nc2cccc(Cl)c2)NC1=O (configuration not stated)
1.3,0.19,c1ccc2oc(-c3csc(N4CCOCC4)n3)cc2c1
0.39,-0.05,CN1CCN(S(=O)(=O)c2cccc(C(=O)NC3CCCC3)c2)CC1
0.75,-2.2,CCCCNC(=O)CS(=O)Cc1nc(-c2ccc(C)cc2)oc1C (configuration not stated)
0.59,0.5,CCC(C(=O)NC1CCCCC1)N(Cc1cccs1)C(=O)c1snc(C(N)=O)c1N (configuration not stated)

# Additional structures follow:
KCNQ2 pot,KCNQ2 pot baseline,Structure
0.02,-0.45,COc1ccc(CN2CCC(n3nccc3NC(=O)C3CC3)CC2)c(OC)c1OC
0.06,0.49,O=C(C1=C(O)C(=O)N(Cc2ccco2)C1c1ccccc1F)c1cccs1 (configuration not stated)
0.05,-0.08,CC(C)[C@H](NS(=O)(=O)c1ccc2c(c1)OCCO2)C(=O)OCC(=O)Nc1cccc(Cl)c1Cl
0.17,-1.7,CSc1ccccc1N=CC1=C(O)CC(C)(C)CC1=O
1.9,0.18,COc1ccc(NC(=O)CC(NCc2ccccn2)C(=O)O)cc1 (configuration not stated)
0.24,-0.61,Cc1ccccc1C(=O)Nc1nnc(SC(C)C)s1
0.13,-0.31,CSc1ccc(/C=C/C(=O)N2CCN(c3ccccn3)CC2)cc1
0.47,0.85,Cc1cc(NC(=O)C2CC(=O)N(c3cccc(C)c3C)C2)no1 (configuration not stated)
1.1,-1.3,CCN1CCN(C(c2cccs2)C(C)NC(=O)c2cccc(OC)c2)CC1 (configuration not stated)
0.17,-1.5,COc1ccc(N2C(=O)CC(N3CCN(c4ccc(Cl)cc4)CC3)C2=O)cc1 (configuration not stated)
0.87,1.3,C=CCN1C(=O)C(O)=C(C(C)=O)C1c1ccccc1F (configuration not stated)
0.11,-1,CC(NC(=O)CN1CCCC1)C12CC3CC(CC(C3)C1)C2 (configuration not stated)
1.8,-0.3,Cc1nn(C)c(Cl)c1NC(=O)OCc1ccc(Cl)cc1Cl
0.18,0.01,CC1CCC(N2CCN(c3ncccn3)CC2)CC1 (configuration not stated)
0.39,1.9,CC(=O)Oc1ccc(N(C(C)=O)S(=O)(=O)c2ccc(Cl)cc2)c2ccccc12

# (list continues)
KCNQ2 pot,KCNQ2 pot baseline,Structure
0.04,-1.2,COC(=O)c1ccc(C)c(NS(=O)(=O)c2cn(C)nc2C)c1
0.32,0.86,CN1C(=O)COc2ccc(C(=O)c3ccccc3C(=O)O)cc21
0.55,0.2,CC1=NN(C(C#N)c2ccccc2O)C(C)(C)C1 (configuration not stated)
0.06,-0.59,O=C(Cc1ccc(Cl)cc1)NNC(=O)Nc1cccc2ccccc12
0.5,-0.25,CC(C)(C)C(=O)Nc1ccc(C(=O)NCc2cccnc2)cc1

# High-throughput results: PubChem BioAssay, Johns Hopkins Ion Channel Center

# The list is partial; rates above refer to the full screens.
